NS1 function inh – inhibitors of influenza NS1 protein function; S. cerevisiae slowed by influenza A NS1, growth recovery by OD600; Potency, µM (doses to about 46.1 µM), for inactives: at the top dose activity, positive = more growth; 270,000 tested, 0.4% active; AID 2326; active means well fitted rising curve with a large enough effect; inconclusive means small, poorly fitted or top-dose-only effect; inactive means no such curve, though single readings can be large or run the other way; note: nearly all actives have a fitted effect of over 50% in size
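S. cerevisiae expressing influenza A NS1, grown in glucose, washed, then diluted 1:100 into pH 6.0 -URA galactose medium with 23 nl compound. Growth recovery read as OD600; NS1-free strain serves as control.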
Cruzain Triton – inhibitors of Trypanosoma cruzi cruzain with detergent | Potency, µM, for inactives: max response, negative = inhibition, actives largely listed as inhibitors | 200,000 tested, 0.43% active | P25779 | purified cruzain, Z-FR-AMC fluorescence, 0.01% Triton;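 note: plate controls were neutral wells for no effect and buffer without enzyme for full effect; nearly all actives have a fitted effect of over 40% in size; top concentration of the series not given in the record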
Target sequence (P25779 123-467 limits assumed): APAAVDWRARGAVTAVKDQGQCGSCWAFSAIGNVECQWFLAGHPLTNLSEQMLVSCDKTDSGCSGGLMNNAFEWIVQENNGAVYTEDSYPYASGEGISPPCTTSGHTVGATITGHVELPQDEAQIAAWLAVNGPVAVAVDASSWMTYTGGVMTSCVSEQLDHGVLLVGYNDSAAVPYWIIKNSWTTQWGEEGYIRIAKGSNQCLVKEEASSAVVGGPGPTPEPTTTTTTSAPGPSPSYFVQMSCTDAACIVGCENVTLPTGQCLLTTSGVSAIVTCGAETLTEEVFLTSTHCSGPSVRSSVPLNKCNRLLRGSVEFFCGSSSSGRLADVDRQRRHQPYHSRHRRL
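Read-out: AMC fluorescence (360 nm excitation, 450 nm emission), four reads over 2 min, first-to-third difference used. Conditions: cruzain 1.5 nM, Z-FR-AMC 2 uM, pH 5.5 acetate, 5 mM DTT, 0.01% Triton X-100.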
SARS PLpro yeast – SARS-CoV PLP inhibition in yeast. S. cerevisiae expressing SARS-CoV PLpro, growth rescue; control for the full effect not named in the record. Potency, µM (highest dose often 32.9 µM), for inactives: top-dose activity, positive = growth rescue. 330,000 tested, 0.19% active. AID 485353; active means well fitted rising curve with a large enough effect; inconclusive means small, poorly fitted or top-dose-only effect; inactive means no such curve, though single readings can be large or run the other way; note: 0% is about no effect; nearly all actives have a fitted effect of over 55% in size; growth read by luminescence after 48 h
MARV entry inh – blocks Marburg virus binding to or entry into cells. Marburg virus pseudotyped entry inhibition, cell reporter; control for the full effect not named in the record; about a third of the inactives were read at about 46 µM. Potency, µM (titrated, usually from 37.8 µM), for the others: top-dose activity change, negative = inhibition, actives largely listed as inhibitors. 300,000 tested, 1.8% active; active = well fitted inhibition curve with a large enough effect; inconclusive = small, poorly fitted or top-dose-only effect, or effect the other way; inactive = flat fitted curve, though single readings scatter; tested in HEK293 cells; about a fifth of its hits are not listed in these tables; note: % is set by controls: 0 for no effect and ±100 for the full control effect; luciferase read-out
Cruzain noTriton – blocks cruzain activity in detergent-free assay; purified cruzain, Z-FR-AMC fluorescence, no detergent; P25779; Potency, µM, for inactives: max response, negative = inhibition, actives largely listed as inhibitors; AID 1476; 200,000 tested, 2.3% active;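 note: plate controls were enzyme without inhibitor for no effect and buffer without enzyme for full effect; nearly all actives have a fitted effect of over 40% in size; top concentration of the series not given in the record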
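Detergent-free condition (0.00005% Triton X-100) in acetate buffer pH 5.5 with DTT. 1.5 nM enzyme and compound were pre-mixed 15 min, then 2 uM Z-FR-AMC substrate added; reaction progress from fluorescence change between first and third reads (60 s).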
LASV entry inh – inhibitors of Lassa virus binding or cell entry; Lassa virus pseudotype entry inhibition, cell reporter; control for the full effect not named in the record; Potency, µM (top dose mostly 37.9 µM), for the others: top-dose activity change, negative = inhibition, actives largely listed as inhibitors; 300,000 tested, 1.2% active; active means well fitted inhibition curve with a large enough effect; inconclusive means small, poorly fitted or top-dose-only effect, or effect the other way; inactive means flat fitted curve, though single readings scatter; tested in HEK293 cells; note: % is set by controls: 0 for no effect and ±100 for the full control effect; nearly all actives have a fitted effect of over 50% in size; luciferase read-out
RE007 growth inh – less growth of the S. pombe RE007 Vpr strain; 360,000 tested, 0.21% active; Potency, µM (highest dose often 92.2 µM), for inactives: top-dose activity change, negative = less growth; S. pombe RE007 Vpr strain, BacTiter-Glo ATP luminescence, 24 h; control for the full effect not named in the record; active = well fitted falling curve with a large enough effect; inconclusive = small, poorly fitted or top-dose-only effect; inactive = no such curve, though single readings can be large or run the other way;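 note: % is set by controls: 0 for no effect and ±100 for the full control effect; nearly all actives have a fitted effect of over 50% in size; the assay follows cell death caused by Vpr and the record does not say whether a fall means rescue or toxicity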
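Fission yeast strain RE007, carrying one chromosomally integrated HIV-1 vpr copy, was seeded at OD 0.01 in PMG+AL medium with 23 nL pinned compound. After 24 h at 30 °C and 99% humidity, viability was read by BacTiter-Glo luminescence.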
StopGo reporter – lowers the luciferase signal of an FMDV 2A StopGo reporter. Potency, µM (doses to about 57.9 µM), inactives show top-dose signal change, negative = less light. human cells with a luciferase reporter of 2A StopGo recoding; control for the full effect not named in the record. AID 1159524. 410,000 tested, 1.2% active; active = well fitted falling curve with a large enough effect; inconclusive = small, poorly fitted or top-dose-only effect; inactive = no such curve, though single readings can be large or run the other way; tested in HEK293T cells; note: % is set by controls: 0 for no effect and ±100 for the full control effect; nearly all actives have a fitted effect of over 45% in size; luciferase light after 4 h
* marks the source's active call; other numbers are inactive results; ? = inconclusive; nt = no result given; & = joins results of further samples; [ ] = remark or other dose. Unless noted, calls come from the whole dose curve; as a rule, active = well fitted curve in the direction sought with a large enough effect; inconclusive = small, poorly fitted or top-dose-only effect, or another doubt; inactive = no such curve, though single readings can be large; an effect the other way counts as inactive or inconclusive. Potency is the fitted concentration of half-maximal effect.

Results follow in this order: NS1 function inh | Cruzain Triton | SARS PLpro yeast | MARV entry inh | Cruzain noTriton | LASV entry inh | RE007 growth inh | StopGo reporter
- CCN1C(=O)/C(=C/c2cccs2)SC1=Nc1ccc(OC)cc1
    3% | -0.3% | 4% | -7% | -1% | 1% | -1% | -15%
- N#Cc1ccc(OCC(=O)N2CCc3ccccc32)cc1
    nt | nt | -2% | 3% | nt | -14% | 15% | 18%
- COc1ccc(N2CCN(Cc3nnc(-c4cccc(Br)c4)o3)CC2)cc1
    nt | -0.5% | nt | -1%[46.1 µM] | 4% | -9%[46.1 µM] | nt | 18%
- O=C(NCc1ccccc1Cl)C1CCC(CNc2c(N3CCCCC3)c(=O)c2=O)CC1 (stereo not drawn)
    24% | -18% | -10% | 10% | -16% | -2% | 8% | -4%
- CCN(CC)C(=O)C(=O)Nc1ccc(OC)c(Cl)c1
    4% | nt | -2% | ? | nt | 6% | 3% | 51%[activator]
- O=S(=O)(NCC1CCCO1)c1cnc(Cl)c(Br)c1 (stereo not drawn)
    15% | -0.6% | 1% | ? | 0% | -23% | -5% | 14%
- O=C(OCC1COC(c2ccccc2)(c2ccccc2)O1)c1ccccc1 (stereo not drawn)
    nt | nt | nt | -2% | nt | 7% | -6% | -6%
- CCOC(=O)c1cnc(-n2nc(C)cc2C)nc1NNc1cc(-c2ccccc2)nc(C)n1
    7% | 0.8% | -3% | -7% | ? | -1% | nt | nt
- Cc1cc(C)cc(-n2ccnc2SCC(=O)Nc2ccc3c(c2)OCO3)c1
    nt | -6.7% | nt | nt | -16% | -16%[46.1 µM] | nt | ?
- O=C(Nc1ccccc1)c1c(O)c2c(n(Cc3ccco3)c1=O)CCCC2
    ? | nt | 3% | 1%[46.1 µM] | nt | ? | 2% | 8%
- CC(C)CCN(C(=O)Nc1ccccc1)C(C)c1cccs1 (stereo not drawn)
    -17% | -6.4%&-3.2% | -5% | -18%&-18% | -6%&-12% | -4%[46.1 µM] | -6% | -2%&-10%
- O=C1C2C3CC(C2C(=O)N1c1cccc(Cl)c1)[C@H](O)C3O (stereo partly drawn)
    4% | nt | 0% | nt | nt | nt | -9% | -4%
- COc1ccc(C(=O)NCCCCCC(=O)N/N=C/c2ccco2)cc1OC
    2% | -2.7% | 14% | 5% | -8% | -6% | nt | -8%
- NC(=O)CN(c1ccc(Oc2ccccc2)cc1)S(=O)(=O)c1ccccc1
    0% | nt | ? | -1% | nt | -10% | -10% | -20%
- COc1ccc(N/C=C(\C#N)c2ccc(OCCCF)cc2)cc1
    -2% | -6.7% | -8% | ? | -9% | -4% | 6% | 4%
- COc1ccc(C2CC(c3ccc(Cl)c(Cl)c3)Nc3nc(N)nn32)cc1 (stereo not drawn)
    -29% | -7.6% | 0% | nt | ? | nt | -2% | -23%
- CCCCCCOc1ccc(C2C(=O)N(C3CCCCC3)CC(=O)N2CCC)cc1 (stereo not drawn)
    nt | 0.1% | nt | nt | ? | 0%[46.1 µM] | nt | ?
- CCS(=O)(=O)N1CCN(C(=O)c2ccccc2[N+](=O)[O-])CC1
    -3% | nt | 8% | 2%[46.1 µM] | nt | 6% | 13% | 2%
- CCOc1ccc2nc(NC(=O)/C=C/c3ccc4c(c3)OCO4)sc2c1
    11% | -1.3% | 17% | 0% | 8% | -2% | -4% | -17%
- Cc1ccc(S(=O)(=O)n2cnc3ccccc32)c(C)c1
    3% | 1.1% | 10% | ? | 3% | 6% | 15% | 39%[activator]
- CCOC(=O)N(Cc1ccccc1)Cc1ccc(C(=O)N[C@@H](Cc2ccccc2)C(=O)O)cc1
    nt | nt | nt | 2% | nt | ? | 2% | -15%
- CSc1ncccc1C(=O)N1CCN(C(=O)c2ccccc2)CC1
    1% | nt | 2% | nt | nt | nt | 1% | -1%
- O=[N+]([O-])c1cccc2c(N3CCOCC3)ccnc12
    3% | nt | 0% | nt | nt | nt | 7% | -8%
- CCc1nc(SCC(=O)Nc2cccc(C(F)(F)F)c2)c2c(=O)n(C)c(=O)n(C)c2n1
    -2% | -4.7% | 0% | 4% | 18% | nt | -2% | ?
- CC(OC(=O)CCN=C1NS(=O)(=O)c2ccccc21)C(=O)NCc1ccccc1 (stereo not drawn)
    nt | nt | 0% | 22% | nt | 9% | -8% | -18%
- Cc1cccc(CC(=O)NCC(=O)NCc2cc(=O)n(C)c(=O)n2C)c1
    10% | nt | 6% | nt | nt | nt | -9% | -4%
- C=CCc1c(O)c(CC)cc2c(C)cc(=O)oc12
    -43% | nt | -3% | 27%[46.1 µM] | nt | 8%[46.1 µM] | 16% | -17%
- CCCc1nc2ccccc2c(C(=O)OCC(=O)Nc2cccc(S(=O)(=O)N3CCOCC3)c2)c1CC
    30% | -4.1% | 10% | ? | -3% | 18µM* | 3% | -1%
- Cc1cccc(-c2nnc(SCC(=O)N3CCCC3)o2)c1
    -1% | nt | -2% | 7%[46.1 µM] | nt | 26%[46.1 µM] | 13% | 43%[activator]
- Cc1cc(=O)c2cc(C(=O)Nc3ccc(F)cc3)ccc2[nH]1
    nt | -3.7% | nt | 5%[46.1 µM] | 3% | 7%[46.1 µM] | nt | -7%

A portion taken from the entries so far:
Results follow in this order: NS1 function inh | Cruzain Triton | SARS PLpro yeast | MARV entry inh | Cruzain noTriton | LASV entry inh | RE007 growth inh | StopGo reporter
- CCOC(=O)N(Cc1ccccc1)Cc1ccc(C(=O)N[C@@H](Cc2ccccc2)C(=O)O)cc1
    nt | nt | nt | 2% | nt | ? | 2% | -15%
- CSc1ncccc1C(=O)N1CCN(C(=O)c2ccccc2)CC1
    1% | nt | 2% | nt | nt | nt | 1% | -1%
- O=[N+]([O-])c1cccc2c(N3CCOCC3)ccnc12
    3% | nt | 0% | nt | nt | nt | 7% | -8%
- CCc1nc(SCC(=O)Nc2cccc(C(F)(F)F)c2)c2c(=O)n(C)c(=O)n(C)c2n1
    -2% | -4.7% | 0% | 4% | 18% | nt | -2% | ?
- CC(OC(=O)CCN=C1NS(=O)(=O)c2ccccc21)C(=O)NCc1ccccc1 (stereo not drawn)
    nt | nt | 0% | 22% | nt | 9% | -8% | -18%
- Cc1cccc(CC(=O)NCC(=O)NCc2cc(=O)n(C)c(=O)n2C)c1
    10% | nt | 6% | nt | nt | nt | -9% | -4%
- C=CCc1c(O)c(CC)cc2c(C)cc(=O)oc12
    -43% | nt | -3% | 27%[46.1 µM] | nt | 8%[46.1 µM] | 16% | -17%
- CCCc1nc2ccccc2c(C(=O)OCC(=O)Nc2cccc(S(=O)(=O)N3CCOCC3)c2)c1CC
    30% | -4.1% | 10% | ? | -3% | 18µM* | 3% | -1%
- Cc1cccc(-c2nnc(SCC(=O)N3CCCC3)o2)c1
    -1% | nt | -2% | 7%[46.1 µM] | nt | 26%[46.1 µM] | 13% | 43%[activator]
- Cc1cc(=O)c2cc(C(=O)Nc3ccc(F)cc3)ccc2[nH]1
    nt | -3.7% | nt | 5%[46.1 µM] | 3% | 7%[46.1 µM] | nt | -7%

Next compounds.
Results follow in this order: NS1 function inh | Cruzain Triton | SARS PLpro yeast | MARV entry inh | Cruzain noTriton | LASV entry inh | RE007 growth inh | StopGo reporter
- COc1ccc(-c2csc(Nc3ccc(C)cn3)n2)cc1
    0% | nt | 1% | -6%[46.1 µM] | nt | 5% | -29% | -13%
- COc1cccc(NC(=O)[C@@H]2CCCN2C(=O)[C@@H]2Cc3ccccc3CN2C(=O)OC(C)(C)C)c1
    5% | nt | -1% | nt | nt | nt | -2% | 16%
- CCOC(=O)c1[nH]c(C)c(CCC(=O)NCc2ccc(OC)cc2)c1C
    nt | 4.0% | nt | nt | -15% | -5%[46.1 µM] | nt | 6%
- COCCOc1cc(COC)nc(-c2cccc(C)c2)n1
    -8% | nt | -1% | nt | nt | nt | -14% | -26%
- O=c1c2c(nc3cc(-c4ccc(Cl)cc4)[nH]n13)CCS2
    12% | -5.8% | -10% | 4% | ? | -2% | 10% | -22%
- Cc1cccn2c(=O)c(/C=C(\C#N)C(=O)NCc3ccco3)c(N3CCCCC3)nc12
    8% | -12% | -28% | -11% | -19% | 1% | 0% | -7%
- COc1ccc(OC)c(S(=O)(=O)NCCCc2ccccc2)c1
    -23% | nt | -5% | 2%[46.1 µM] | nt | -4%[46.1 µM] | 15% | 58%[activator]
- O=C(COC(=O)c1cccc(C(=O)OCC(=O)NC2CCCCC2)n1)NC1CCCCC1
    -3% | 2.7% | 9% | -16% | -12% | 0% | 8% | -2%
- COc1cccc2sc(N(CCCN(C)C)C(=O)c3ccc(S(=O)(=O)N4CCCc5ccccc54)cc3)nc12
    18% | nt | -7% | nt | nt | nt | -6% | ?
- O=C(NCC1CCCN(Cc2nccs2)C1)c1cccc2ccccc12 (stereo not drawn)
    5% | nt | -3% | 3% | nt | 10% | -15% | -1%
- CCCN1CCN(CCCNC(=O)C(CC)n2nc(C)c3sc4ccccc4c3c2=O)CC1 (stereo not drawn)
    -4% | nt | -2% | ? | nt | 14%[46.1 µM] | -8% | -3%
- COc1ccccc1C(=O)Nc1ccnn1C1CCN(Cc2cc(C)c(C)cc2C)CC1
    -6% | nt | ? | ? | nt | ? | -21% | ?
- Clc1ccc(-c2nnc3sc(-c4ccccn4)nn23)cc1
    -7% | 4.7% | 0% | -5% | 11% | nt | nt | nt
- Cc1ccc(C(=O)N/C(=C\c2cccs2)C(=O)NC2CCCCC2)cc1
    -14% | -4.5% | -14% | ? | -6% | -6% | -6% | 5%
- OCCN1CCN(c2nc(NCc3ccco3)c3ccccc3n2)CC1
    1% | -5.2% | -7% | -27% | -14% | -16% | -12% | 20%
- CCc1sc(C(=O)Nc2ccccc2N2CCOCC2)cc1C
    nt | nt | -4% | -26%[46.1 µM] | nt | -14%[46.1 µM] | -12% | -11%
- O=C(CCc1ccccc1)N/N=C/c1cc(Br)ccc1O
    15% | -5.0% | -4% | 22µM* | 20µM* | ? | 12% | -4%
- C/C(=N\NC(=O)CC1N=C(Cc2ccccc2)NNC1=O)c1ccc(Br)cc1 (stereo not drawn)
    4% | nt | 2% | nt | nt | nt | 10% | -16%
